E coli growth: inhibitors of Escherichia coli growth | OD600, 23 h; hits give low values | OD600 absorbance (test concentration not listed) | 330,000 tested, 0.21% active;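 active = OD600 absorbance below the run mean of sample wells minus 3.6 SD, in any replicate, cut at about 0.56 in these data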;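 also: stock transfer was 300 nL into about 60 µL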
HNF4A DNA FP: change in binding of human HNF4 alpha to DNA; 360,000 tested, 0.3% active; activity change, % at 10 µM; HNF4a-FITC DNA binding, fluorescence polarization, 1 h; in the data active = activity change above about 30%, passing the limit was not always enough;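 also: controls were the assay level and a saturating level of protein; the project sought stronger binding though the title names inhibitors; some compounds called inactive have numbers as strong as hits; positive values seem to mean higher polarization but the record does not say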
Target sequence (P41235 whole entry, looked up): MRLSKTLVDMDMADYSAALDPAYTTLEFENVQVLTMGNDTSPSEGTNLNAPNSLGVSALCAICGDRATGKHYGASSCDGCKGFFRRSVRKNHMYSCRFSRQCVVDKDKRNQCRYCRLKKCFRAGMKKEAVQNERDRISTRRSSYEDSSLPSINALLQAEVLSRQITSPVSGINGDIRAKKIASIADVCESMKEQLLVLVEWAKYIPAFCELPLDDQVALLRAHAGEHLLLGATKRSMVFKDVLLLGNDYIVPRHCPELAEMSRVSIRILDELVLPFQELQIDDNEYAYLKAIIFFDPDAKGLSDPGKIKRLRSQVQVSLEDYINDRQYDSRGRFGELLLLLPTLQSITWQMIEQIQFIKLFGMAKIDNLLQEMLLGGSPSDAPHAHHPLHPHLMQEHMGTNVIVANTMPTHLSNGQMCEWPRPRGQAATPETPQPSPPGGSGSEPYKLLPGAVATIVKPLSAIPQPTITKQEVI
FGF22 binding: binders of recombinant human FGF22 by thermal shift | Q9HCT0 | SYPRO orange fluorescence; percent of sucrose octasulfate shift, DMSO zero | calls only at 9.99 µM | 340,000 tested, 1.5% active | AID 651658;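 active = melting point raised past a set limit in the mean and every replicate; inconclusive = no clear call; three in four hits are not shown here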
Target sequence (Q9HCT0 whole entry, looked up): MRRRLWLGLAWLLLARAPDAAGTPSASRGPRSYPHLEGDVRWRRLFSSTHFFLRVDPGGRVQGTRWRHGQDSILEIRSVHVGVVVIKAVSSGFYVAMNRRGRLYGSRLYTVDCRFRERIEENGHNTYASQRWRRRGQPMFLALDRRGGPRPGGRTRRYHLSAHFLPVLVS
RanGTP-Imp inh: disruptors of Ran-importin-beta complex formation – biochemical, FRET, CFP-Ran, YFP-importin-beta, homogeneous, primary screen. cell-free CFP-Ran/YFP-importin-beta FRET ratio. inhibition, % (no concentration beside the values). 300,000 tested, 1.1% active;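 active = most replicates above 15%; inconclusive = exactly half above 15%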;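 also: 0% = DMSO wells and 100% = Ran loaded with GDP instead of GTP; wells of about 40 µL received 100 nL stock; the first replicate is given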
UCH37 DUB inh: blocks the human deubiquitinase UCH37; Q9Y5K5; inhibition, % (test concentration not listed); AID 588478; 330,000 tested, 0.33% active; purified proteasome/UCH37, Ub-AMC cleavage fluorescence;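 active = mean of two replicates above 20%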;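 also: 0% = compound-free wells with enzyme and 100% = wells lacking proteasome; stock transfer was 100 nL into about 20 µL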
Target sequence (Q9Y5K5 whole entry, looked up): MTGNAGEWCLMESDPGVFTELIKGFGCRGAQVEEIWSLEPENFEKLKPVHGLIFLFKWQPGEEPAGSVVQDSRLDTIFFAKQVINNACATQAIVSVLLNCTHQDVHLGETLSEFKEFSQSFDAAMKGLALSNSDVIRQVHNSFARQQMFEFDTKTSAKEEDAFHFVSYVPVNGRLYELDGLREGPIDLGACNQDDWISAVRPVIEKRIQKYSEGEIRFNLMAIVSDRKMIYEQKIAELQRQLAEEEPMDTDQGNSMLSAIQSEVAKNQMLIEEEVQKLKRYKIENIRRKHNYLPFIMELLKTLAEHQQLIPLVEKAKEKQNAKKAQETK
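Assay system: Proteasome-bound UCH37. Buffer or medium: pH 7.4 Tris-HCl (50 mM) with ovalbumin, ATP-MgCl2, DTT. Incubation: 30 min preincubation with enzyme, 25 min cleavage at room temperature. Measured by: fluorescence, ex 355 nm, em 460 nm. Read-out basis: percent inhibition. Control set: wells without proteasome as full block, compound-free enzyme plus substrate as uninhibited.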
AF4-AF9 inh: inhibitors of human MLL-AF4/AF9 interaction. AlphaScreen, biotin-AF4 peptide binding to FLAG-AF9. P42568. AID 651704. inhibition, % at 10 µM. 350,000 tested, 0.47% active;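 active = every replicate reaching a set inhibition limit, whatever the replicate mean, cut at about 25% in these data; inconclusive = mean inhibition reaches that limit but some replicates miss it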;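 also: 0% = plate neutral control median and 100% = total signal loss; the record names both 10 and 1 µM as test concentration; the first replicate is given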
Vif TR-FRET: HIV-1 Vif–A3G interaction blockers – biochemical, TR-FRET, GST-Vif 1-94, biotin-A3G peptide, dose response retest, primary screen (AID 1117319). TR-FRET GST-Vif / biotin-A3G peptide binding; higher % means a stronger effect; test concentration not given here; strong numbers were not always called active. inhibition, %; hits with a dose series show IC50 in µM. 260,000 tested, 0.57% active;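 active = above the screen mean plus three standard deviations and confirmed in dose response; inconclusive = results disagree or hit not tested in dose response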;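 also: Vif residues 1-94 fused to GST binding biotinylated APOBEC3G peptide 110-148; 0% = full assay without inhibitor and 100% = GST in place of GST-Vif; retest series ran down from 100 µM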
* = called active by the depositor; i = inactive; u = inconclusive; x = not tested or not shown; & = joins results of further samples. Some of the compounds tested; count on the stated rates, not on these rows.

Structure	E coli growth	HNF4A DNA FP	FGF22 binding	RanGTP-Imp inh	UCH37 DUB inh	AF4-AF9 inh	Vif TR-FRET
COc1ccc(/C=C(/NC(=O)c2ccccc2)C(=O)NCc2ccncc2)cc1	0.641	-0.3	i	2.8	1.8	4.1	x
CCOC(=O)c1ccc(CN2Cc3ccccc3C2=O)cc1	0.65	0.0	i	1.1	-1.2	-0.1	-15.9%
CCOc1ccc(S(=O)(=O)n2cc(F)c(=O)[nH]c2=O)cc1	0.685	-3.4	i	3.0	4.9	-3.4	-4.7%
CCn1c(=O)c(C(=O)NNC(=O)c2ccccc2Cl)c(O)c2ccccc21	0.695	-1.2	x	-1.7	-2.6	-2.6	x
COc1ccc(-c2nnn(CC(=O)N(CC(=O)NC3CCCC3)c3cccc(C)c3)n2)cc1OC	0.678	3.0	x	-6.6	-0.6	x	18.5%&-7.4%
O=C1N(Cc2cccnc2)C[C@@H]2C[C@@H](c3cccc(OC4CCCC4)c3)N3CCC[C@@]123	0.704	7.0	x	4.4	0.7	0.8	9.1%
O=C(NC(=S)Nc1nc(-c2ccc(Cl)cc2)cs1)c1cccs1	0.695	1.9	i	-0.8	5.3	3.1	0.9%
O=C(O)C1CC(c2ccccc2)=Nc2ccccc2S1 (stereo not given)	0.646	-1.8	i	-2.0	5.2	6.5	x
Cn1c(CNc2ccccc2)cc(=O)n(C)c1=O	0.737	-7.5	x	x	2.0	x	-1.5%
C[n+]1ccccc1/C=C/c1ccccc1Cl	x	-3.2	i	0.7	x	-1.4	-1.2%
COc1ccc(NC2CCCN(C(=O)CCN3CCOCC3)C2)cc1 (stereo not given)	0.722	1.6	i	-1.0	4.1	-3.2	x
Cc1cc(C(=O)COc2ccc3ccc(=O)oc3c2)c(C)n1Cc1cccs1	0.695	-1.2	x	2.8	-47.3	x	x
CC(C)C[C@@H](N)c1nnc(SCC(=O)c2ccc(Cl)cc2)o1	0.728	1.9	x	0.8	2.0	x	8.5%
CC1CCN(c2nnc(-c3ccccc3)c3ccccc23)CC1	0.712	-4.7	i	-1.2	3.4	7.0	-12.1%
CCN(CC)C(=O)Oc1ccc2c(=O)c(-c3ccc(OC)cc3)c(C)oc2c1	0.736	-3.2	x	3.6	1.0	x	-2.0%
CC(C)c1cccc(C(C)C)c1NC(=O)Cn1c(=O)cnc2ccccc21	0.708	5.9	i	4.0	-19.6	-0.4	x
CCOC(=O)Cc1csc(/N=C/c2c(O)n(-c3ccccc3C(F)(F)F)c(=O)c3ccccc23)n1	0.755	12.9	x	1.9	-18.3	x	-0.5%
COc1ccc(S(=O)(=O)N2CCc3ccccc32)cc1C(=O)Nc1cccnc1	0.684	-3.5	i	4.1	3.3	2.2	2.3%
CCOC(=O)N1CCN(CC(O)COCCC23CC4CC(CC(C4)C2)C3)CC1 (stereo not given)	0.75	1.3	x	0.4	4.7	x	13.8%
Cn1c(=O)c(C(=O)CN2CCN(S(=O)(=O)c3ccccc3)CC2)c(N)n(Cc2ccccc2)c1=O	0.711	-1.4	x	-0.6	5.4	x	x
CCOc1ccc(NC(=O)CC(NCc2ccccn2)C(=O)O)cc1 (stereo not given)	0.712	-1.0	x	-4.6	-1.1	-3.1	-6.9%
O=C(c1cccc(Oc2ccccc2)c1)N1CCN(c2ccccn2)CC1	0.668	0.6	x	3.9	0.5	-0.8	3.6%
O=C(CNC(=O)c1ccccc1)NCc1ccc(Cl)cc1	0.659	-5.5	i	-1.0	3.1	-2.7	12.8%
CC(C)NCc1nnc(-c2ccc(Cl)cc2)o1	0.691	9.8	i	0.7	-1.2	-0.7	-4.9%
Clc1ccccc1CN(Cc1ccccc1)C(c1cccs1)c1nnnn1C1CCCC1 (stereo not given)	0.793	-2.0	x	-1.6	-2.0	x	1.2%
O=C(COc1ccccc1)Nc1cc(NC(=O)COc2ccccc2)cc(C(=O)O)c1	0.647	0.2	i	0.0	4.1	5.2	7.3%
CCOc1ccc(CCNc2cc(C)nc3ncnn23)cc1OCC	0.711	-2.0	i	-5.1	4.3	-0.2	7.9%
Cc1cccc(NS(=O)(=O)c2ccc(C)c(C(=O)NC3CCN(Cc4ccccc4)CC3)c2)c1	0.701	7.1	i	x	2.7	6.6	x
COc1ccc(OC)c(NC(=O)C2(C)CCN2CCc2ccccc2)c1 (stereo not given)	x	2.8	i	x	x	1.5	x
CCOC(=O)C1(CC/C(C)=N\NC(N)=O)CC(C)OC1=O (stereo not given)	x	5.6	x	-3.9	x	x	0.8%
COc1cc(OC)cc(C(=O)NCC(=O)OCC(=O)N2CCc3ccccc32)c1	0.694	1.4	i	7.4	3.8	-3.3	-2.1%
CCCC(=O)Nc1nnc(SCC)s1	0.7	-1.6	x	1.7	1.8	x	0.6%
CC1(CC(=O)N/N=C/c2cc3c(cc2Br)OCO3)OCCO1	x	2.5	i	0.6	x	0.2	-4.5%
C[C@H](CO)N1C[C@H](C)[C@@H](CN(C)C(=O)Nc2ccc(C(F)(F)F)cc2)Oc2ccc(NS(=O)(=O)c3cccs3)cc2C1=O	x	2.4	i	x	1.0	0.1	x
COc1cc(C(C)=O)ccc1OCc1cn(CC(=O)c2ccc(O)cc2)nn1	x	-3.5	i	x	x	-1.1	x
CC(=O)Nc1ccc(SCC(=O)NC(=O)c2ccccc2Br)cc1	0.695	4.2	i	x	1.5	3.1	-8.4%
CCOC(=O)C1=C(C)NC(=O)NC1c1ccc2c(c1)OCCO2 (stereo not given)	0.73	-2.8	x	-2.5	4.2	x	-3.1%
c1ccc(-c2nn3c(C4CCCCC4)nnc3s2)cc1	0.685	0.1	x	2.1	1.0	x	6.2%
CCCC(C)NC(=O)c1cccc(Oc2ccccc2)c1 (stereo not given)	0.691	-0.2	i	7.3	4.8	-1.0	-5.1%
CCC(C)c1ccc(O)c(NC(=S)NC(=O)c2cccnc2)c1 (stereo not given)	0.63	2.0	i	-2.7	2.9	2.7	-0.6%
CN(C)CCNC(=O)c1cc(Sc2ccc(F)cc2)nc2ccccc12	0.692	x	x	3.3	4.5	x	u
COCc1cc(=O)n2[nH]c(-c3ccco3)cc2n1	0.686	2.4	i	6.4	-7.1	0.1	x
CN(C)c1ccc(-c2nnn(CC(=O)N3c4ccccc4CCc4ccccc43)n2)cc1	0.717	-0.2	i	-0.1	-12.6	0.4	-14.2%&-10.7%
Cc1ccc(-c2nc(CS(=O)(=O)CC(=O)NCCCN3CCOCC3)c(C)o2)cc1	0.645	-1.4	i	5.5	2.6	-1.1	x
CCN(CC(=O)Nc1ccc2c(c1)OCCO2)C(=O)CCOc1ccccc1	0.701	1.3	i	x	1.1	-0.7	2.9%
Cc1ccc(/C=C2\SC(=S)N(CCCC(=O)Nc3cccnc3)C2=O)cc1	0.725	1.0	x	0.4	7.6	x	2.0%
CC1=C(C#N)S(=O)(=O)C(C#N)C(c2ccccc2)C1 (stereo not given)	x	3.9	i	3.6	x	-0.8	-7.0%
CSc1ccccc1NC(=O)COc1ccc(S(=O)(=O)N2CCCC2)cc1	0.667	-1.1	x	1.7	-2.4	x	-0.6%
COCCNc1c2c(c(C#N)c3nc4ccccc4n13)CCCC2	0.694	1.1	i	20.5*	0.2	-4.5	-7.4%
NC(c1csc(NC(=O)Nc2cccc(C(F)(F)F)c2)n1)C1CCCCC1 (stereo not given)	x	8.2	i	x	x	17.1	x

Further entries.
Structure	E coli growth	HNF4A DNA FP	FGF22 binding	RanGTP-Imp inh	UCH37 DUB inh	AF4-AF9 inh	Vif TR-FRET
Cc1ccc(N2C(=O)c3ccccc3C2=O)cc1Cl	0.79	-0.3	x	4.4	-0.7	x	19.3%
NC(=O)c1nnn(-c2ccccc2)c1N	0.654	1.4	i	-2.5	5.8	0.5	x
Oc1ccc(N=Cc2cc(Br)c(N3CCOCC3)o2)cc1	0.718	5.7	i	9.3	10.3	8.6	u
O=C(NCCN1CCNCC1)c1ccccn1	0.703	0.8	x	-1.0	3.9	x	-4.7%
CCOC(=O)C1CCCN(C(=O)c2cccc(S(=O)(=O)N(Cc3ccccc3)c3ccccc3OC)c2)C1 (stereo not given)	0.673	-0.8	i	x	-0.4	-10.9	-5.1%
Cn1c(CN2CCOCC2)nnc1SCC(N)=O	x	-0.8	x	-2.2	x	x	17.4%
COC(=O)C(c1ccccc1)C(C(=O)OC)c1ccccc1 (stereo not given)	0.663	0.6	i	-1.3	-2.6	1.0	1.3%
O=C(CCn1cnc2ccccc2c1=O)Nc1ccc(S(=O)(=O)N2CCCCC2)cc1	0.679	3.2	x	0.8	0.5	x	0.6%
O=C(NCCNC(=O)c1cc(F)cc(F)c1)c1cc(F)cc(F)c1	0.739	0.9	i	-3.4	2.2	-2.2	-8.1%
CC(NC(=O)CNC(=O)c1ccccc1F)c1ccc(-n2ccnc2)cc1 (stereo not given)	0.61	-0.4	i	x	0.1	-2.2	x
COc1ccc(CCN(C)C(=O)C2CCN(Cc3ccccc3)CC2)cc1OC	0.662	-2.5	i	4.9	0.2	-12.9	31.0%
Cc1c(C(=O)N(C)C2CC(C)(C)NC(C)(C)C2)oc2c(F)cccc12	0.708	-6.5	i	1.7	-0.8	-6.5	x
O=C(O)C(Cc1ccccc1)N=Cc1c(O)c2ccccc2oc1=O (stereo not given)	0.721	-2.7	i	-0.3	7.6	-2.2	9.9%
C/C(=N\NC(=O)c1cc2c(s1)CCC(C)C2)c1cccnc1 (stereo not given)	x	6.7	x	2.5	x	0.5	3.0%
Cn1c(=O)n(C)c2cc([N+](=O)[O-])c(N3CCN(S(=O)(=O)c4ccccc4)CC3)cc21	0.688	-2.4	i	-1.4	8.1	u	u
N#C/C(=C\c1cccnc1)c1ccc([N+](=O)[O-])cc1	0.653	-4.7	i	6.0	6.5	7.2	x
CC1CC(C)CN(C(C(=O)NC2CCCCC2)c2cc3ccccc3o2)C1 (stereo not given)	x	0.0	i	x	x	2.6	x
O=C(NCCCN1CCN(c2ccccc2F)CC1)C1CCN(S(=O)(=O)N2CCOCC2)CC1	0.735	1.5	x	6.6	-3.3	x	2.6%
CC1=C([N+](=O)[O-])C(c2ccccc2Cl)NC(=O)N1 (stereo not given)	0.629	1.8	i	-1.4	9.0	-0.9	x
CC(NC(=O)c1ccccc1F)c1nnc(SCC(=O)N2CCN(c3ccccc3)CC2)n1C (stereo not given)	0.724	1.0	i	0.1	0.4	-2.0	2.4%
CN(CC(=O)Nc1ccccc1Cl)C(=O)c1cc(=O)[nH]c2ccccc12	0.667	-1.1	i	-1.1	-10.8	0.3	2.2%
CCCN(CCC(=O)Nc1ccccc1F)CC1CC1	0.777	28.6	x	1.7	4.7	x	11.1%
Cc1cccc(NC(=O)CN(CCc2ccccc2)S(C)(=O)=O)c1	0.72	-1.9	i	-4.7	4.1	0.3	x
O=C(Nc1ccc(S(=O)(=O)Nc2nccs2)cc1)c1cccc(N2C(=O)c3ccccc3C2=O)c1	0.675	3.2	i	1.4	2.5	-16.6	1.1%
COc1ccc(C(C)C)cc1-c1cc(C(=O)NCc2cc(C(F)(F)F)cc(C(F)(F)F)c2)[nH]n1	x	-5.8	i	x	x	-6.3	x

In another format: entries from further up
Fields – E coli growth	HNF4A DNA FP	FGF22 binding	RanGTP-Imp inh	UCH37 DUB inh	AF4-AF9 inh	Vif TR-FRET
- Cc1ccc(N2C(=O)c3ccccc3C2=O)cc1Cl
 : 0.79	-0.3	x	4.4	-0.7	x	19.3%
- N#C/C(=C\c1cccnc1)c1ccc([N+](=O)[O-])cc1
 : 0.653	-4.7	i	6.0	6.5	7.2	x

Bioassay records from PubChem.
